PrP UTR inh: inhibition of PrP 5' UTR reporter expression; AID 488862, 2010; 340,000 tested, 0.35% active; cell-based PrP 5' UTR mRNA reporter, plate reader; inhibition, % (concentration not given with the values);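 active = every replicate at 50% or more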;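 also: 0 = median of the neutral control wells; tested in H4 reporter cells; numbers are from one replicate; inactives centre near -14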
Autofluor counter: compound fluorescence in toxin protease inhibitor counterscreen; 360,000 tested, 3.1% active; fluorescence intensity (test concentration not listed); compound autofluorescence counterscreen, microsphere flow cytometry; active compounds read high; AID 624483;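 active = at least 3 SD above the mean of all compounds, about 16000 in these data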;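 also: 100 nL of 1 mM stock went into each well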
* marks the source's active call; other numbers are inactive results.

1	C#CCOCCOCCOCCNc1nc(N2CCN(C(=O)CCCCCCCCCCNC(=O)[C@H](CCCCN)n3cc(CCO)nn3)CC2)nc(N2CCN(C(=O)CCCCCCCCCCNC(=O)[C@H](CCCN=C(N)N)n3cc(C[C@@H](C)CC)nn3)CC2)n1
2	O=C1N[C@@H](Cc2ccccc2)COC(=O)[C@H](Cc2ccc(F)cc2)CC/C=C/C[C@@H]1CC(=O)N(CCO)Cc1ccccc1
3	COc1ccc(C(=O)Cn2c(C(C)=O)nc3ccccc32)cc1
4	C=CCC[C@@H](Cc1ccc(F)cc1)C(=O)OC[C@H](C)NC(=O)[C@@H](CC=C)CC(=O)N[C@@H](CO)Cc1ccccc1
5	CCOC(=O)[C@H]1[C@H]2COc3ccc(Cl)cc3[C@@H]2N2C(=O)CNC(=O)[C@@]12C
6	COc1cc(OC)cc(C(=O)N/N=C2/SCC(=O)N2Cc2ccco2)c1
7	O=C1/C(=C\c2ccccc2)CN(C(=O)CCN2CCCCC2)C/C1=C/c1ccccc1
8	CCOc1ccc(NC(=O)COC(=O)c2ccc3c(c2)OCO3)cc1
9	COc1cc2ccc(=O)oc2c(O)c1O
10	OCC[C@H]1C[C@H](O)[C@@H](O)[C@]2(CCc3ccccc3O2)O1
entry no.	1	2	3	4	5	6	7	8	9	10
PrP UTR inh	-18	-18	-8	-10	-25	-27	-18	-16	-18	-11
Autofluor counter	3838	4037	3736	3013	4017	3933	3446	3854	4292	3776

11	COc1cc(C[C@@H](C)[C@@H](C)Cc2ccc(O)c(OC)c2)ccc1O
12	CO[C@@H]1C=CC23c4cc5c(cc4CO[C@]2(O)CN(C)[C@H]3C1)OCO5 (some centres undefined)
13	C[C@H](CO)N1C[C@H](C)[C@@H](CN(C)Cc2ccncc2)Oc2c(NC(=O)CCCCCC(=O)Nc3ccccc3N)cccc2C1=O
14	CCCCN1CC(CO)Oc2cccc(F)c2S1(=O)=O (centres undefined)
15	CN1N=C(N)c2cn(C3OC(COP(=O)(O)O)C(O)C3O)c3ncnc1c23 (centres undefined)
16	COc1cc(OCc2ccc(C)cc2)ccc1CNC[C@H]1O[C@@H](n2cnc(C(N)=O)n2)[C@H](O)[C@@H]1O
17	CC(C)(C)OC(=O)C[C@@H]1C/C=C\C[C@@H](CC(=O)N[C@H](CO)Cc2ccccc2)C(=O)NC[C@H](c2ccccc2)OC1=O
18	COC(=O)C1=C(c2ccc(F)cc2OCc2ccccc2)C[C@@H]2CC[C@H]1N2C(=O)NCc1ccc(C(F)(F)F)cc1
19	Cc1[nH]c2ccccc2c1C(=O)CSc1nnc(C2CC2)o1
20	CN1C(=O)[C@H]2[C@@H](/C=C/c3ccccc3)N3C(=O)CN(Cc4ccc(-c5ccccc5)cc4)C(=O)[C@@]3(C)[C@H]2C1=O
entry no.	11	12	13	14	15	16	17	18	19	20
PrP UTR inh	-22	3	-26	-7	43	-22	6	-17	-6	-19
Autofluor counter	2871	2863	4078	3404	2960	2878	3934	3722	3874	3796

21	CCCCn1c(/N=C/c2ccccc2NS(=O)(=O)c2ccc(C)cc2)nc2ccccc21
22	C#CCOCCOCCOCCNc1nc(N2CCN(C(=O)CCCCCCCCCCNC(=O)[C@@H](CCSC)n3cc(CCO)nn3)CC2)nc(N2CCN(C(=O)CCCCCCCCCCNC(=O)[C@H](CCC(=O)O)n3cc(CCCCCN)nn3)CC2)n1
23	CC(C)c1ccc(Oc2cccc3c2S(=O)(=O)N(C2CCCC2)CC(COCc2ccccc2)O3)cc1 (centres undefined)
24	C=C1CC2(CC(c3ccccc3)OC(c3ccccc3)C2)OC1=O (centres undefined)
25	Cc1nnc(SC(C)C(=O)NC2CCCCC2)[nH]c1=O (centres undefined)
26	O=C(Nc1cccc(C(=O)N2CCOCC2)c1)C1CC1
27	CNc1nc(=O)n(C2CCCO2)cc1C (centres undefined)
28	Cc1ccc(S(=O)(=O)N2[C@@H](c3ccccc3)C(C(=O)O)=CC[C@H]2c2cccc(Cl)c2)cc1
29	N#Cc1c(C#N)c(SSc2c(C#N)c(C#N)c(N)n2-c2ccccc2)n(-c2ccccc2)c1N
30	COc1cc(CCCN2CCNC[C@@H]2CC2CCCCC2)cc(OC)c1OC
entry no.	21	22	23	24	25	26	27	28	29	30
PrP UTR inh	0	-15	-8	-23	-24	-16	-24	-1	-3	-14
Autofluor counter	7671	4043	3011	3964	3773	3246	9483	4066	3687	3483

31	CC(C)C[C@@H](CNCC(=O)[C@H](C)NC(=O)c1[nH]cnc1C(=O)N[C@@H](C)CN)NC(=O)c1nc[nH]c1C(=O)N[C@@H](Cc1ccccc1)C(=O)O
32	COc1ccc2c(c1)OC[C@H]1[C@H]2N2C(=O)CN(CCc3c[nH]c4ccccc34)C(=O)[C@@]2(C)[C@H]1c1ccccc1
33	COc1ccc2c(c1)[C@H]1[C@H](CO2)[C@H](c2ccccc2)[C@]2(C)C(=O)Nc3ccc(Cl)cc3C(=O)N12
34	CC(C)C[C@@H](CNCC(=O)[C@H](CC(C)C)NC(=O)c1[nH]cnc1C(=O)N[C@@H](C)CN)NC(=O)c1nc[nH]c1C(=O)N[C@@H](Cc1ccccc1)C(=O)O
35	O=C1C=C(/C=C/C2C=CC=CC2)C[C@@H](c2ccc(Cl)cc2)C1 (some centres undefined)
36	C[C@]12CC[C@@H](O)CC1=CC(=O)C1C2CC[C@]2(C)C(=O)CCC12 (some centres undefined)
37	CN(C)c1ncnc2c1ccn2C1OC(CO)C(O)C1O (centres undefined)
38	CC(=O)Nc1ccc(/C(C)=N/Nc2nc(Nc3ccccc3)nc(N3CCOCC3)n2)cc1
39	CC[C@H](C)[C@H]1CNC(=S)N1CC1CCN(CCCCc2ccccc2)CC1
40	O=S1(=O)c2c(F)cccc2O[C@@H](COCc2ccccc2)CN1CCc1ccc(F)cc1
entry no.	31	32	33	34	35	36	37	38	39	40
PrP UTR inh	-16	-14	-63	-18	-15	-5	-2	-66	-27	-14
Autofluor counter	3880	4081	3508	3684	5012	3262	3071	4354	3559	3801

Quoted at random: 6 records from the list
31	CC(C)C[C@@H](CNCC(=O)[C@H](C)NC(=O)c1[nH]cnc1C(=O)N[C@@H](C)CN)NC(=O)c1nc[nH]c1C(=O)N[C@@H](Cc1ccccc1)C(=O)O
2	O=C1N[C@@H](Cc2ccccc2)COC(=O)[C@H](Cc2ccc(F)cc2)CC/C=C/C[C@@H]1CC(=O)N(CCO)Cc1ccccc1
6	COc1cc(OC)cc(C(=O)N/N=C2/SCC(=O)N2Cc2ccco2)c1
11	COc1cc(C[C@@H](C)[C@@H](C)Cc2ccc(O)c(OC)c2)ccc1O
19	Cc1[nH]c2ccccc2c1C(=O)CSc1nnc(C2CC2)o1
20	CN1C(=O)[C@H]2[C@@H](/C=C/c3ccccc3)N3C(=O)CN(Cc4ccc(-c5ccccc5)cc4)C(=O)[C@@]3(C)[C@H]2C1=O
entry no.	31	2	6	11	19	20
PrP UTR inh	-16	-18	-27	-22	-6	-19
Autofluor counter	3880	4037	3933	2871	3874	3796

Remaining list, next part.
41	c1ccc(C2(CN3CCNC[C@@H]3CC3CCCCC3)CC2)cc1
42	COc1ccc(-c2c(-c3ccc4c(c3)OCO4)c3ccccc3n2C)cc1
43	O=C1C=C(c2cccc3c2Oc2ccccc2S3)C[C@@H](c2ccc(Cl)cc2)C1
44	Cc1c(C2(O)CCCCC2)[nH]c2ccc(C#N)cc12
45	O=Cc1ccc(OCc2cn(CC(=O)c3ccc(O)cc3)nn2)cc1
46	COC(=O)C1=C(c2ccc(Cl)c(C(F)(F)F)c2)C[C@@H]2CC[C@H]1N2C(=O)NC1CCCCC1
47	O=C1OC=NC1=Cc1ccccc1
48	C=CC[C@H](CC(=O)N[C@H](CO)Cc1ccccc1)C(=O)N[C@@H](COC(=O)[C@@H](CC=C)CC(=O)OC(C)(C)C)Cc1c[nH]c2ccccc12
49	O=C1CSC(=S)N1N=Cc1ccc(Cl)cc1Cl
50	CCCCC1C(=O)NC(=S)N(C)C1=O (centres undefined)
entry no.	41	42	43	44	45	46	47	48	49	50
PrP UTR inh	-22	-21	-16	-24	-16	9	-19	-7	-16	-9
Autofluor counter	3909	4142	3594	3480	3157	4182	3649	3682	2764	3724

51	Cc1ccccc1-c1cccc([C@@H]2C[C@H]3C(CN2)CON3C)c1 (some centres undefined)
52	C[C@@]12C(=O)Nc3cc(F)c(F)cc3C(=O)N1[C@H]1c3ccccc3OC[C@@H]1[C@@H]2c1ccccc1
53	CC[C@@]1(c2ccccc2OC)ON(c2ccccc2C(F)(F)F)C1=O
54	COc1cccc(CN(C)C(=O)Cn2cc(C)c(=O)[nH]c2=O)c1
55	CCOc1ccc(/C=C2/SC(=S)N(C(C(=O)O)c3ccccc3)C2=O)cc1OCC (centres undefined)
56	CCCCN(Cc1ccccc1)S(=O)(=O)c1cc2c(cc1Br)CC(C)N2C(C)=O (centres undefined)
57	C#CCOCCOCCOCCNc1nc(N2CCN(C(=O)[C@H](CCCN=C(N)N)n3cc(C(N)[C@@H](C)CC)nn3)CC2)nc(N2CCN(C(=O)[C@H](CC(N)=O)n3cc([C@@H](N)CC(N)=O)nn3)CC2)n1 (some centres undefined)
58	c1ccc2c(CCN3CCNC[C@H]3Cc3cccc4ccccc34)cccc2c1
59	CC(C)c1c(O)ccc2c1CC[C@H]1C(C)(C)CCC[C@]21C
60	Cc1ccc2nc3c(cc(S(=O)(=O)c4ccccc4)c(=N)n3C3CCCC3)c(=O)n2c1
entry no.	51	52	53	54	55	56	57	58	59	60
PrP UTR inh	4	-4	-14	-1	-10	-22	-16	-26	-13	-34
Autofluor counter	3132	4048	4075	3699	4506	3350	3207	5895	5290	3259

61	CN1[C@H]2CC[C@@H]1C(C(=O)N1CCOCC1)=C(O)C2
62	CC(C)C[C@H]1CNC(=S)N1CC1CCCN1C[C@H](CC(C)C)N1C[C@H](CC(C)C)N(CCc2ccccc2)C1=S (some centres undefined)
63	CCn1c(NN)nc2sc3c(c2c1=O)CCC3
64	C[C@H](CO)N1C[C@H](C)[C@@H](CN(C)CC2CCCCC2)Oc2ccc(NS(C)(=O)=O)cc2C1=O
65	COC(=O)C1=C(c2ccc(-c3ccccc3)c(F)c2)C[C@@H]2CC[C@H]1N2C(=O)NCCOc1ccccc1
66	CC1CCN(C(=O)Cn2cc(C(F)(F)F)ccc2=O)c2ccccc2S1 (centres undefined)
67	COc1ccc([C@H]2CC(=O)C=C(c3ccc4c(c3)OCO4)C2)cc1OC
68	COC(=O)C1=C(c2ccc(F)cc2OCc2ccccc2)C[C@@H]2CC[C@H]1N2C(=O)NCCCc1ccccc1
69	NC(CSC(c1ccccc1)(c1ccccc1)c1cccc2ccccc12)C(=O)O (centres undefined)
70	C/C(=N/NC(=O)c1ccc(-c2ccccc2)cc1)c1cc(O)cc(O)c1
entry no.	61	62	63	64	65	66	67	68	69	70
PrP UTR inh	-21	-18	-14	-14	-33	-5	-17	-16	-25	-4
Autofluor counter	4168	4020	2987	4129	3086	3399	2938	3633	3719	6025

71	O=C(OCc1ccccc1)N1CCC2CC1c1cc(NCCc3ccccc3)ccc12 (centres undefined)
72	Cc1[nH]nc(NCCO)c1[N+](=O)[O-]
73	CCOc1ccc(NC(=O)CCC(=O)N/N=C2\CCCc3ccccc32)cc1
74	OCC1OC(n2ccc3c(NO)ncnc32)C(O)C1O (centres undefined)
75	C=CCN1C(=O)/C(=C\C=C2\N(C)c3ccccc3C2(C)C)SC1=S
76	C=CC[C@@H](CC(=O)NCCO)C(=O)NC[C@H](OC(=O)[C@@H](CC=C)Cc1ccc(F)cc1)c1ccccc1
77	CC(C)(C)NC(=O)CCN(/N=C/c1ccc([N+](=O)[O-])o1)C1=NS(=O)(=O)c2ccccc21
78	C/C(=N\OCC(=O)OCC(=O)Nc1cc(S(C)(=O)=O)ccc1Cl)c1ccc2c(c1)OCO2
79	CCN1C(=O)[C@H]2[C@@H](c3ccc(C)cc3)N3C(=O)N(c4cccc(Cl)c4)C(=O)[C@@]3(Cc3ccc(Cl)cc3)[C@H]2C1=O
80	O=C(C=Cc1ccco1)c1ccc2ccccc2c1
entry no.	71	72	73	74	75	76	77	78	79	80
PrP UTR inh	-16	-14	-8	89*	-8	-20	-27	-20	-15	-110
Autofluor counter	3879	3725	5619	2808	4733	3884	2677	3743	4463	4441

81	CCCCN1CC(=O)N2[C@H]3c4cc(C)ccc4OC[C@@H]3[C@H](c3ccccc3)[C@]2(C)C1=O
82	CCOc1ccc(OCC(=O)Nc2cccc(S(=O)(=O)NC3=NCCC3)c2)cc1
83	C#CCOCCOCCOCCNc1nc(N2CCOCC2)nc(N2CCN(C(=O)[C@H](CC(N)=O)n3cc(C(N)[C@@H](C)CC)nn3)CC2)n1 (some centres undefined)
84	CCC[C@@H](CN1CCC[C@H]1CN1C(N)=NC[C@@H]1Cc1ccccc1)N1C[C@@H]([C@H](C)CC)N(CCc2ccc(Cl)c(Cl)c2)C1=N
85	Cc1c(-c2ccccc2Br)nc2ccccc2c1C(=O)O
86	COC(=O)C1=C(c2ccc(OCc3ccccc3)cc2)C[C@@H]2CC[C@H]1N2C(=O)NCc1ccc(OC)c(OC)c1
87	O=C(O)c1ccc(/C=N/NC(=O)c2cc3ccccc3cc2O)cc1
88	COc1cccc(C#Cc2c(C=O)n(C)c3ccccc23)c1
entry no.	81	82	83	84	85	86	87	88
PrP UTR inh	-30	0	-7	-6	-8	-19	-25	-7
Autofluor counter	3521	2825	3001	3178	3814	3046	8841	3517

The list is partial; the hit share may differ from the screen's.
